Screening results: PubChem BioAssay, National Center for Advancing Translational Sciences (NCATS)
AmpC inh no det – Promiscuous and Specific Inhibitors of AmpC Beta-Lactamase (assay without detergent); AmpC nitrocefin hydrolysis, absorbance 480 nm, no detergent; potencies from a single point are estimates; Potency, µM (highest dose often 28.7 µM), for the others: at the top dose activity change, negative = inhibition; 71,000 tested, 1.8% active; AID 585, 2007; active = falling curve, for most hits resting on a single point; inconclusive = weak or doubtful change; inactive = flat or rising curve; further: % of control where 0% means no effect; about half of the hits show no inhibition at the top dose; a quarter of the inactives give rising signals
Target sequence (P00811 whole entry, looked up): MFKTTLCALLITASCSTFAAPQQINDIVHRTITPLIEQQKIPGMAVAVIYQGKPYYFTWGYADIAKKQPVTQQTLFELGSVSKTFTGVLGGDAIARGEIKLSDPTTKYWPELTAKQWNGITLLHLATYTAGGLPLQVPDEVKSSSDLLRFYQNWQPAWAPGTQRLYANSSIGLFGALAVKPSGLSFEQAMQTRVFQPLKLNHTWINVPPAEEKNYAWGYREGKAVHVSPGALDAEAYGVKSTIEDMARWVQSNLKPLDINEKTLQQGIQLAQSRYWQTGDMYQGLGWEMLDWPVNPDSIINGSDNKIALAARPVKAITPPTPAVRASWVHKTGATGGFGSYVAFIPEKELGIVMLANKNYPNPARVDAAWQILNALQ
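Enzyme, pH 7.0 phosphate. Compound titrations were pre-incubated with AmpC for 15 min at room temperature before nitrocefin (stock 800 uM) addition; product formation was recorded at 480 nm every 20 s for 4 min.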
* = called active by the depositor; u = inconclusive; [ ] = dose if it differs, or a comment. Potency means the concentration at half of the fitted maximal effect. An excerpt; rates above refer to the full screens.

structure | AmpC inh no det
CC1(CC(=O)O)O[C@H]2CCCCC[C@H]2O1 (stereo partly specified) (tested in a mixture with another compound) | -4%[5.75 µM]
CCCC(=O)Nc1c2c(nn1-c1ccc(OC)cc1)CS(=O)(=O)C2 | -12%
CCOC(=O)c1cc2sc(C)cc2n1CC(=O)NCc1ccc(F)cc1 | 32%
CC(=O)N1CCc2cc(Br)cc(S(=O)(=O)NCCCN3CCC(C)CC3)c21 | -2%
O=S1(=O)Nc2c(ccc3cccnc23)-c2ccccc21 | -16%
CC(SC1CCCC1)C(=O)NC(C)(C#N)C(C)C (stereo unspecified) | -4%
c1ccc(Nc2c3c(nc4ncnn24)CCC3)cc1 | -15%
CN(C)CP(=O)(Nc1ccccc1)N(C)C (stereo unspecified) | -8%
O=C(CCNS(=O)(=O)c1cccc2nsnc12)NCCc1ccccc1 | 9%
COC(=O)[C@@H](N)CCCN=C(N)N[N+](=O)[O-] | -3%
c1nc(N2CCNCC2)c2sc3nc(N4CCOCC4)c4c(c3c2n1)CCC4 | -2%
O=C(O)Cn1nnnc1SCC(=O)Nc1ccc(OC(F)(F)F)cc1 | -1%
Cc1[nH]c(N)nc(=S)c1CCCNc1ccccc1 | -3%[5.75 µM]
COc1ccc(CNc2nc3c(c(=O)[nH]c(=O)n3C)n2CCCc2ccccc2)cc1 | 0%
CC(=O)Nc1ccc(C(=O)CSc2nnc(-c3ccc(O)cc3)n2CC2CCCO2)cc1 (stereo unspecified) | 23%
CCO[C@H]1O[C@@H]([C@H](COCc2ccccc2)OCc2ccccc2)[C@@H](OCc2ccccc2)[C@H]1O | 80%[12.8 µM]
CCOC(=O)Cn1c(=O)oc2cc(S(=O)(=O)NC3CCCc4ccccc43)ccc21 (stereo unspecified) | 10%
CC(=O)Nc1cccc(-c2cnc3ccccc3n2)c1 | 28%
CN(Cc1ccccc1)c1nc2c(c(=O)[nH]c(=O)n2C)n1CCSc1nc2ccccc2[nH]1 | 16%
CCOC(=O)CSC1=Nc2ccccc2C2=NC(CC(=O)NCc3ccc4c(c3)OCO4)C(=O)N12 (stereo unspecified) | 0%
CCOC(=O)C1C2C=CC3(CN(c4ccccc4CC)C(=O)C13)O2 (stereo unspecified) | 11%
Cc1ccc(CNC(=O)[C@H]2C[C@@H]2[C@H](NP(=O)(c2ccccc2)c2ccccc2)c2ccccc2)c(F)c1F | 43%
Cc1cccc(S(=O)(=O)c2c(N)n(/N=C/c3ccco3)c3nc4ccccc4nc23)c1 | -7%
N#Cc1nc(COc2cccc(Cl)c2)oc1N1CCCC1 | 33%
COc1cccc(CNC(=O)Cn2c(=O)oc3ccccc32)c1OC | -4%
CCCCC(CC)CNCC(CC)CCCC (stereo unspecified) | -2%
CC(C=O)Cc1ccc(C(C)(C)C)cc1 (stereo unspecified) | 5%
O=C(NC1CCN(C(=O)Nc2ccccc2)CC1)C1CCCCC1 | -2%
O=C(Nc1c(-c2ccccc2)nc2c(Br)cc(Br)cn12)c1ccco1 | -10%
CCOC(=O)/C=C1\SCC(=O)N1CC(O)CN1C(=O)CS/C1=C\C(=O)OCC | 23%
O=C1C2C(C(=O)N1Cc1cccnc1)C1C=CC2C12CC2 (stereo unspecified) | 26%
COC(=O)COc1ccc(Oc2cc(C)nc(SC)n2)nn1 | 7%
CCN(CC)CC(=O)Nc1c(Br)ccc2c1OCO2 | -22%
CC(C)OC(=O)CSc1nnc(-c2ccccn2)n1-c1ccccc1 | 17%
O=C(CN1CCN(c2ccccn2)CC1)Nc1cccc(C(F)(F)F)c1 | 46%
CCOC(=O)C1CCCN(C(=O)c2ccc(CS(=O)(=O)c3ccc(C)cc3)o2)C1 (stereo unspecified) | 2.5µM*[single pt active]
Cc1cccc(NC(=O)Cn2cnc3sc(C)c(S(=O)(=O)N4CCC(C)CC4)c3c2=O)n1 | 8%
O=C(COc1ccc(F)cc1)N(CC1=CCS(=O)(=O)C1)c1ccccc1 | 16%
Cc1cccc(C)c1OCC(O)CN (stereo unspecified) | 2%
Cc1ccn2c(CCc3nnc4cc(C)ccn34)nnc2c1 | -3%[5.75 µM]
Cc1c(NC(=O)CSc2nnnn2Cc2ccccc2)c(=O)n(-c2ccccc2)n1C | -4%
COc1ccc(CNc2ncncc2-c2ccccc2C)c(OC)c1 | 42%
CCSC(=O)Cl | -12%
COc1c(C)cccc1C(=O)Nc1cc(Cl)ccc1N1CCOCC1 | 22%
Cn1nnc(NC(=O)COc2ccc(C3CCCCC3)cc2)n1 | 82%
COc1ccc(Oc2coc3c(CN(C)C)c(O)ccc3c2=O)cc1 | -5%
CCCCC1(COC(=O)CCC(=O)O)C(=O)N(c2ccccc2)N(c2ccccc2)C1=O | 21%[12.8 µM]
CC(C)(C)CC(C)(C)c1ccc(OCCO)cc1 | 159%
COC(=O)C(C(=O)OC)N1C(=O)CCC1=O | 3%
c1csc(CNc2ccnc(-c3ccc4c(c3)OCO4)n2)c1 | 16%
COc1cccc(N2CCN(c3c4c(nc5ncnn35)CCC4)CC2)c1 | 54%
NS(=O)(=O)c1ccc(CCNC2CC(=O)N(CCc3ccccc3)C2=O)cc1 (stereo unspecified) | 18%
CCOC(=O)C(C)Sc1ccc2nnc(-c3ccc(F)cc3)n2n1 (stereo unspecified) | 55%
CCc1nnc(NC(=O)c2ccc(NS(=O)(=O)c3ccccc3)cc2)s1 | -9%
CCC1CCCCN1CCNS(=O)(=O)c1ccc2c(c1)oc(=O)n2C (stereo unspecified) | -20%
COc1cc(C(=O)N2CCN(C(=O)Cc3ccccc3)CC2)cc(OC)c1OC | 29%

Continuation.
structure | AmpC inh no det
CCCCC(CC)CNC(=O)c1[nH]c(C)c(C(C)=O)c1C (stereo unspecified) | 15%
O=S1(=O)CCN2C(=N1)Sc1c2ccc2c1CCCC2 | 6%
CSc1nc2ccc(S(=O)(=O)Nc3c(C)n(C)n(-c4ccccc4)c3=O)cc2s1 | 4%
Cc1cc(C)n2c(SCCC(C)C)nnc2n1 | 35%
O=C(Nc1c(C(=O)Nc2cccc(F)c2)oc2ccccc12)c1ccc2c(c1)OCO2 | u
CC1(C)OC(=O)C(=CNCC(O)c2ccccc2)C(=O)O1 (stereo unspecified) | -5%
CCCCS(=O)(=O)NC1=NCN(CC)CN1 | 1%
CC(C)(C)Cc1nnc(NS(=O)(=O)c2ccc(F)cc2)s1 | 3%
O=c1n(CC2CO2)c(=O)n(CC2CO2)c(=O)n1CC1CO1 (stereo unspecified) | -4%
Cn1nc(-c2ccc(C(=O)NCC3CCCO3)cc2)c2ccccc2c1=O (stereo unspecified) | 9%
Cc1cc(=O)oc2cc(Oc3ncccn3)ccc12 | -14%
C=CCN1C(=O)/C(=C2\SC(N3CCOCC3)=NC2=O)c2cc(Br)ccc21 | 93%
COC(=O)C(O)(c1ccc2c(c1)CCCN2)C(F)(F)F (stereo unspecified) | 0%
O=C(CCCn1c(=O)[nH]c2ccsc2c1=O)N1CCCCC1 | 0%
Cc1ccc(CNC(=O)CSc2nc(N3CCCCC3)nc(N3CCCCC3)n2)cc1 | 19%
COc1ccc(-n2c(=O)cc(N3CCN(c4ccccc4OC)CC3)[nH]c2=O)cc1 | 34%
Cc1cc(C)n2nc(-c3cccnc3)nc2n1 | -5%
CC(=O)NCCNc1ncnc2ccc(-c3ccc4c(c3)OCO4)cc12 | 91%
O=S(=O)(c1ccc2c(c1)OCCO2)N1CCC(O)(c2ccc(Cl)cc2)CC1 | 37%
O=C(CSc1nc(-c2ccccc2)cc(=O)[nH]1)N1CCc2ccccc21 | -1%
CCC(c1nnc(SCCNCCO)n1CCN1CCOCC1)N(C)C (stereo unspecified) | 3%
O=C(CCc1ccccc1)N1CCN(CCO)CC1 | 4µM*[single pt active]
CC(OC(=O)c1nsc(Cl)c1Cl)C(=O)NCc1ccco1 (stereo unspecified) | -1%
Cc1cccc(NC(=O)CN2CCN(CC(=O)Nc3cccc(C)c3)CC2)c1 | 4%
FC(F)(F)c1ccccc1-c1cncnc1NCc1cccnc1 | 4%
Cc1ccn2cc(CCNC(=O)c3ccc(Br)o3)nc2c1 | 5%
Cc1oc(C)c(C(N)=O)c1C(N)=O | -6%
CCCCC(=O)Nc1ccc2c(c1)OCCO2 | -5%
C(=C\c1ccccc1)/CN1CCN(Cc2ccc3c(c2)OCCO3)CC1 | 35%
Cc1cc(NC(=O)Cn2nc(C(F)(F)F)c3c2CCC3)n(-c2ccccc2)n1 | 21%
Cc1nn(Cc2ccccc2Cl)c(C)c1C(=O)NCc1ccco1 | 11%
CCCCOc1ccccc1NC(=O)CC1Nc2ccccc2NC1=O (stereo unspecified) | -8%
S=C(CSc1ccccc1)Nc1cccc2ccccc12 | -10%[5.75 µM]
O=C(CN1C(=O)COc2ccc(Cl)cc21)Nc1ccc2c(c1)OCCO2 | 5%
CCc1nnc(NCn2nc(C)cc2C)s1 | -6%
CCNc1ncc2nc(-c3cn(C)c4ccccc34)c(=O)n(-c3ccccc3)c2n1 | 2%
CCOC(=O)N1CCN(C(=O)Cn2ncn3nc(-c4cccs4)cc3c2=O)CC1 | 15%
Nc1cc(Cl)c(NC2=NCCN2)c(Cl)c1 | 1%
CS(=O)(=O)N(CC(N)=O)c1ccc(F)c(Cl)c1 | 29%
COCCn1nnnc1CN(CCc1ccc(OC)c(OC)c1)Cc1cc2ccc(C)cc2[nH]c1=O | 111%
CCCNS(=O)(=O)c1ccc(OCC(=O)N2CCN(Cc3ccc4c(c3)OCO4)CC2)cc1 | 89%
CC(=O)N1CCN(CC(=O)Nc2c(Cl)cccc2Cl)CC1 | -10%
Cc1cc(=O)oc(C)c1C(=O)NCCCN1CCN(c2ccc(F)cc2)CC1 | 34%
O=C(NCCN1CCc2ccccc2C1)C1CCN(S(=O)(=O)N2CCCCC2)CC1 | 27%
CCOCCCNC(=O)C1CCN(C(=O)Nc2ccc(Cl)cc2)CC1 | 5%
O=C(CCc1nc(-c2ccccc2)no1)NCc1ccco1 | 0%
N[C@H](Cc1o[nH]c(=O)c1Cl)C(=O)O | 19%
CCOC(=O)N1CCC(NC(=O)CSCc2nc(-c3cccc(OC)c3)oc2C)CC1 | 122%
COc1ccc2[nH]cc(CCNc3ncncc3-c3cccc(C#N)c3)c2c1 | 1%
COc1ccc(F)cc1CN1CCN(c2cc(C)nc3c4c(C)cc(C)nc4nn23)CC1 | 118%
O=c1cc(-c2ccccc2)nc2n1Cc1ccccc1-2 | 61%
Cc1cc(C)c2c(CN3CCN(C)CC3)cc(=O)oc2c1 | 11%
CCOC(=O)C1CCN(C(=O)Cc2c(C(=O)O)[nH]c3ccccc23)CC1 | -5%
Nc1c(-c2ccc(Cl)cc2)nnn1-c1ccccc1 | -13%
Cc1ccc(C(=O)CSc2ccccn2)cc1 | -8%
Cc1nnc(SCCCn2c(N3CCN(c4ccccc4)CC3)nc3c2c(=O)[nH]c(=O)n3C)s1 | 102%

The listing continues.
structure | AmpC inh no det
O=C(Cc1ccc(Cl)cc1)Nc1ccc(N2CCN(C(=O)c3ccco3)CC2)cc1 | 10%
Cc1ccc2[nH]c(=O)c(CN(Cc3cccs3)Cc3nnnn3Cc3ccccc3)cc2c1 | 3%
COc1cc(OC)cc(-c2cc3nc(C)c(CCC(=O)NC(C)CCc4ccco4)c(C)n3n2)c1 (stereo unspecified) | 160%
c1ccc(-c2cccc(N3CCCC4(CCNCC4)C3)c2)cc1 | 83%
COc1ccc(Cc2nnc(SCc3c(C)noc3C)n2C2CCCCC2)cc1OC | 99%
Cc1ccc(S(=O)(=O)C2(C(=O)O)CCCC2)cc1C | -9%
Cc1oc(C(C)(C)C)cc1C(=O)Nc1ccc2c(c1)OCCO2 | 16%
CCOc1ccc(C(=O)CSc2nnc(N)s2)cc1 | -20%
COc1cccc(CN(CC(=O)NCC2CCCO2)C(=O)CCC(=O)Nc2cc(C)on2)c1 (stereo unspecified) | 23%
CCn1cc(C(=O)NCC2COc3ccccc3O2)c2cc(OC)c(OC)cc2c1=O (stereo unspecified) | 132%
CCOC(=O)CNC(=O)CSc1nc2sc(C)c(C)c2c(=O)n1C | 25%
O=c1cnc2cnc(Oc3cccc(Cl)c3)nc2n1C[C@H]1CCCO1 | 62%
CCOC(=O)c1ccc(-c2c(C(=O)OCC)oc3cc(O)c(CC)cc3c2=O)o1 | -19%
Cc1cccc(C(=O)Nc2cc(=O)n(C)c(=O)n2C)c1 | -6%
COc1cc2ccccc2cc1-c1nnc(COc2ccccc2)o1 | 112%
COc1ccccc1Nc1nc(N)nc(CSc2nnc(C)s2)n1 | 13%
COc1ccc(C(C)=O)cc1COC(=O)c1ccc(S(=O)(=O)N2CCOCC2)cc1 | 107%
CCn1nnc(-c2ccccc2NC(=O)C(F)(F)F)n1 | -11%
